# LANA-H2A inh = blocks KSHV LANA binding to histone H2A/H2B; Q9QR71; AID 2629; cell-free LANA-H2A/H2B peptide, fluorescence polarization; 320,000 compounds, 0.6% hits; inhibition, % (no concentration beside the values); in the data active = inhibition mostly above about 10%, no sharp cut-off; inactive = mostly below about 6.7%;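 note: stock transfer was 7.5 nL into about 10 µL; 0% = median of vehicle wells and 100% = median of positive control wells; one replicate is shown; the record names a cut of 25% in any replicate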
# Target sequence (Q9QR71 whole entry, looked up): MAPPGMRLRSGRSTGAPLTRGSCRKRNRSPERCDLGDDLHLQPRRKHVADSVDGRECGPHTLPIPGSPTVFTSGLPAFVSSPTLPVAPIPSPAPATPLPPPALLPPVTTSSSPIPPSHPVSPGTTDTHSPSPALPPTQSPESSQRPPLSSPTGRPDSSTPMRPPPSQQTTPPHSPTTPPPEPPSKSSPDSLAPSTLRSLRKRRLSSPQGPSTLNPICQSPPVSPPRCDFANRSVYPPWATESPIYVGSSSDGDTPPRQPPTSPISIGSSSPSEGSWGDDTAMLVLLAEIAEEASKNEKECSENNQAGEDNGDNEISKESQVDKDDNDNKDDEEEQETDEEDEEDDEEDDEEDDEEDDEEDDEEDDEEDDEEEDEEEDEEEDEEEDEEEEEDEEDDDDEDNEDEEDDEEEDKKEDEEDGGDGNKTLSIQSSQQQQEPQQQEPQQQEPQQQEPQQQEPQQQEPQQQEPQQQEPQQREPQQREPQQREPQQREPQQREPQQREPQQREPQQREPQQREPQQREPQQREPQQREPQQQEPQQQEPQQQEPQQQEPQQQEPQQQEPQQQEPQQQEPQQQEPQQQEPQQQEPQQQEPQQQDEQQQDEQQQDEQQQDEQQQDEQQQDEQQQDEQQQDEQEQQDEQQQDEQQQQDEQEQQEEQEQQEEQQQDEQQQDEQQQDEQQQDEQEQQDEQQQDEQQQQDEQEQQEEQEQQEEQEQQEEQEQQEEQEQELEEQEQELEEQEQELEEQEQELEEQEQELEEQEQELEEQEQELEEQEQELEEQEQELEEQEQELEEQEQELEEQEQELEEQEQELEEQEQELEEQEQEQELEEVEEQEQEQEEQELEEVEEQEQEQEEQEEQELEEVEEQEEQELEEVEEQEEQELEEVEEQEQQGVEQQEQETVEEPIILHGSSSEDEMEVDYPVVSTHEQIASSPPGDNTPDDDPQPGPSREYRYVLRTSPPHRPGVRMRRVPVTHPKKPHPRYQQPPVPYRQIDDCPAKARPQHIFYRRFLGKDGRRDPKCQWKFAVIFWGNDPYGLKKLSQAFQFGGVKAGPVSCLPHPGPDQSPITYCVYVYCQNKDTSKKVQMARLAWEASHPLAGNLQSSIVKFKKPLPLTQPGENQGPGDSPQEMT
# T cruzi repl = blocks replication of Trypanosoma cruzi. T. cruzi beta-gal in NIH3T3, luminescence, 90 h. 300,000 compounds, 1.4% hits. inhibition, % (test concentration not listed);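 active = mean inhibition across valid replicates above about 55%, limit read from the data; inconclusive = mean below that limit but half or more replicates reach it; inactive = mean below it, under half of replicates reach it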;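 note: signal also drops with host cell toxicity which is not excluded here; 0% = plate median of DMSO wells and 100% = zero luminescence signal; higher percent means less beta-gal luminescence so fewer parasites; stock transfer was 50 nL into about 50 µL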
# Vif TR-FRET = inhibitors of Vif binding to APOBEC3G peptide, primary screen, biochemical, TR-FRET, GST-Vif 1-94, biotin-A3G peptide, dose response retest (AID 1117319); 260,000 compounds, 0.57% hits; TR-FRET GST-Vif / biotin-A3G peptide binding; higher % means a stronger effect; test concentration not given here; strong numbers were not always called active; inhibition, %; hits with a dose series show IC50 in µM;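 active = above the screen mean plus three standard deviations and confirmed in dose response; inconclusive = results disagree or hit not tested in dose response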;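 note: Vif residues 1-94 fused to GST binding biotinylated APOBEC3G peptide 110-148; 0% = full assay without inhibitor and 100% = GST in place of GST-Vif; retest series ran down from 100 µM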
# Calb FLC = C. albicans growth modulation with fluconazole; C. albicans CaCi-2 (fluconazole-resistant clinical isolate) + fluconazole, Alamar Blue growth, 48 h; growth inhibition, % (concentration not given with the values); 300,000 compounds, 0.57% hits; AID 1979;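 active = most replicates above 75%; inconclusive = exactly half above 75%; inactive = most below 75%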;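 note: all wells also contain fluconazole at 8 µg/ml as a sub-toxic cotreatment; 0% = median of DMSO wells and 100% = median of geldanamycin control wells; wells of about 8 µL received 7.5 nL stock; the first replicate is given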
# A1 inh = inhibitors of the anti-apoptotic protein A1, read as caspase activation | MEF A1-2A-BIM cells, Caspase-Glo 3/7 luminescence, 3 h; percent of clofoctol response, vehicle zero | caspase activation, % (test concentration not listed) | 330,000 compounds, 0.066% hits | AID 2462;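 active = over half of replicate activation scores above 10%, or exactly half above 10 with the replicate mean above 10; inconclusive = replicate mean below 10 yet half the replicates above 10; inactive = over half of replicates below 10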;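 note: wells of about 30 µL received 50 nL stock; many hits fall short of the cut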
# Beta cell apopt = blocks beta cell apoptosis | INS-1E cytokine-induced death, ATP luminescence, 48 h; percent of positive-control rescue, neutral wells zero | protection from apoptosis, % (concentration not given with the values) | 300,000 compounds, 0.8% hits;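 active = all replicates at 75% or more, or half of them and the mean; inconclusive = half reach 75% but not the mean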;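 note: 0% = cytokine-treated negative control wells and 100% = positive control rescue; higher means more ATP so stronger rescue from cytokine killing; wells of about 40 µL received 100 nL stock; the first replicate is given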
# AF4-AF9 inh = MLL-AF4/AF9 protein interaction inhibition; P42568; AlphaScreen, biotin-AF4 peptide binding to FLAG-AF9; inhibition, % at 10 µM; 350,000 compounds, 0.47% hits;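 active = every replicate reaching a set inhibition limit, whatever the replicate mean, cut at about 25% in these data; inconclusive = mean inhibition reaches that limit but some replicates miss it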;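 note: 0% = plate neutral control median and 100% = total signal loss; the record names both 10 and 1 µM as test concentration; the first replicate is given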
# RanGTP-Impb inh = inhibitors of RanGTP-importin-beta interaction, primary screen, biochemical, FRET, CFP-Ran, YFP-importin-beta, homogeneous | cell-free CFP-Ran/YFP-importin-beta FRET ratio | inhibition, % (test concentration not listed) | 300,000 compounds, 1.1% hits;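 active = most replicates above 15%; inconclusive = exactly half above 15%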;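 note: 0% = DMSO wells and 100% = Ran loaded with GDP instead of GTP; wells of about 40 µL received 100 nL stock; the first replicate is given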
# Active calls of the source: *; u = inconclusive; x = not tested or not shown. Compounds were not picked by outcome. About 4.3% of those tested had a hit in this group.
compound,LANA-H2A inh,T cruzi repl,Vif TR-FRET,Calb FLC,A1 inh,Beta cell apopt,AF4-AF9 inh,RanGTP-Impb inh
CC(C)(C)NC(=O)COC(=O)c1ccc2c(c1)C(=O)N(Cc1ccco1)C2=O,-2.8,-7,1%,-5,0.1,3,0.5,-2.8
Cc1nc2ccc(NC(=O)c3cc(S(=O)(=O)N(C)c4ccccc4)ccc3Cl)cc2s1,-0.8,-24,16%,-2,-0.1,80*,x,-0.1
COc1ccccc1N1N=C(c2cccs2)CC1c1ccccc1 (stereo not given),3.1,14,x,16,-0.5,4,x,-0.4
CC(=O)N(C)c1ccc(C(O)(C(F)(F)F)C(F)(F)F)cc1,2.1,-1,-9%,9,-0.1,6,-1.6,0.2
COc1ccc(C(CNC(=O)c2cccc(S(=O)(=O)N(C)c3ccccc3)c2)N2CCCC2)cc1 (stereo not given),-6.3,x,-11%,x,0.6,-5,4.5,x
O=C(O)C1(c2ccccc2)CCN(S(=O)(=O)c2ccccc2)CC1,1.5*,-4,x,3,0.5,-6,0.0,0.2
O=C(C1CCCO1)N1CCN(C(=S)Nc2ccccc2)CC1 (stereo not given),-0.8,-28,x,-2,0.6,4,x,-3.9
CCOc1ccc(NC(=O)CN(C)C(=O)c2ccc(N3CCCCCC3)c([N+](=O)[O-])c2)cc1OCC,6.2,21,-2%,-5,-0.5,1,17,-4.0
CCCOc1ccc(CNC(=O)C2CCN(C(=O)N3CCOc4ccccc43)CC2)cc1,-1.5,5,x,4,0.0,12,-6.4,6.7
CCC(=O)N1CCN(c2nc(-c3ccc(Cl)cc3)cs2)CC1,2.0,-4,u,0,0.6,5,x,2.6
CCn1c(SCC(=O)N2CCOCC2)nnc1-c1ccco1,-0.2,-2,x,-3,-0.1,0,2.6,1.1
C=CCn1c(-c2cccc(OC)c2)nc2nc3ccccc3nc21,2.5,24,2%,35,-0.6,-9,x,0.3
CCOc1ccc2nc(NC(=O)C3CCCN(S(=O)(=O)c4cccc5nonc45)C3)sc2c1 (stereo not given),7.0,57*,-4%,4,-0.7,10,x,u
CCOc1ccccc1NC(=O)N1CCCC1C(=O)Nc1nnc(CC)s1 (stereo not given),-0.4,-2,1%,-5,-0.5,-4,x,-1.5
COc1cccc(NC2=NCC(=O)N2Cc2cccs2)c1,-2.2,6,3%,41,-0.6,-13,x,1.7
COc1ccc(N(C(C)C(=O)NCc2ccco2)S(C)(=O)=O)cc1 (stereo not given),-1.3,-13,22%,-9,-0.9,-5,x,1.6
CCn1c(SCC(=O)NC2CCCCC2)nc2c(c1=O)SC(C)C2 (stereo not given),0.4,-11,2%,1,-1.5,-6,x,2.0
COc1ccc(/C=N/NC(=O)CC(=O)N/N=C/c2ccc(OC)cc2)cc1,7.1,-23,x,11,0.0,-4,-0.7,0.2
CCn1nc(NC(=O)c2ccccn2)c2cc3cccc(C)c3nc21,0.2,8,-4%,10,-0.8,-3,x,38*
O=C(COC(=O)CCc1ccccc1)NCc1ccc2c(c1)OCO2,1.9,x,-2%,x,0.7,-8,-0.5,x
COc1ccc(Cn2c(/C=C/c3ccccc3)nc3ccccc32)cc1,1.5,35,25%,0,-4.9,32,x,28*
CC(C)NC(=O)CC1C(=O)N(Cc2ccccc2)C(C)c2nc3ccccc3n21 (stereo not given),1.4,-3,-5%,-3,0.8,-4,-12,-3.6
Cc1ccc(NC(=O)CCC(=O)NNC(=S)Nc2ccc(F)cc2F)cc1C,1.6,-20,x,25,-0.3,-4,0.3,1.6
N#Cc1c(SCC(=O)N2CCCCC2)nsc1SCC(=O)N1CCCCC1,-4.7,5,-4%,-9,-0.2,8,x,-1.2
Oc1ccccc1CN1CCCC(N2CCN(c3cccc(C(F)(F)F)c3)CC2)C1 (stereo not given),-1.0,24,x,-2,1.0,x,6.3,-2.6
COc1ccc(OC)c(S(=O)(=O)N(C)CC(=O)N2CCc3ccccc3C2)c1,5.5,-6,14%,9,-0.1,-1,x,0.3
O=C(N/N=C/c1ccc2c(c1)OCO2)C(=O)Nc1ccccc1,x,-7,-9%,-8,x,x,0.4,-1.2
N#CCCn1c2ccccc2c2nc3ccccc3nc21,1.4,15,26%,-5,-1.0,4,x,3.5
Cc1ccc(CNC(=O)CSc2nc(C)cc(C)c2C#N)cc1,1.5,12,-78%,-2,-0.2,-2,x,-3.1
O=C(c1cc(Cl)ccc1F)N1CCCC(Nc2ccc3c(c2)OCCO3)C1 (stereo not given),6.6,-1,x,-1,0.2,-5,6.0,1.3
COc1ccccc1-c1n[nH]c(=S)n1Cc1ccco1,-2.3,-4,10%,2,0.2,2,x,4.3
CCOc1cccc(C2/C(=C(/O)c3ccc4c(c3)CC(C)O4)C(=O)C(=O)N2Cc2ccncc2)c1 (stereo not given),-2.0,-5,-5%,x,0.2,0,0.6,3.8
CCc1ccc(S(=O)(=O)Nc2cccc(-c3ccc4nnc(C)n4n3)c2)s1,-7.8,12,2%,-10,-0.2,11,-2.4,0.4
O=C(O)CNC(=O)/C(=C/c1cccc([N+](=O)[O-])c1)NC(=O)c1ccco1,-5.0,-9,13%,-7,1.4,-1,2.2,u
COC(=O)c1ccc(C(=O)OC)c(NC(=O)CSc2nnc(-c3ccccc3Cl)o2)c1,2.8,-24,-19%,4,0.5,-7,x,-3.8
C/C(=N\NC(=O)c1nnn(-c2nonc2N)c1CSc1ccccc1)c1ccco1,0.6,11,-1%,2,-0.1,2,-1.9,-2.3
O=C(OCCCN1CCCC1)C1(c2ccccc2)CCCC1,-0.4,37,3%,-48,0.3,-1,x,-3.8
COc1cc(C)c(C(C)C)cc1S(=O)(=O)NCCCn1ccnc1,-8.7,5,u,28,-0.1,0,x,0.0
CCc1ccccc1N(CC(=O)N1CCCCCC1)S(C)(=O)=O,1.9,-9,x,-5,0.2,x,-2.2,2.3
COCC(C)NC(=O)c1ccccc1OC(C)=O (stereo not given),4.3,1,0%,0,1.2,x,x,3.7
COc1ccccc1N1CCN(Cc2cc(=O)c(OCC#N)co2)CC1,2.9,-14,x,0,1.7,x,-2.6,-1.7
CC1CCCN(S(=O)(=O)c2cc(Cl)ccc2Cl)C1 (stereo not given),-4.7,0,3%,-11,0.2,-4,x,3.2
C=CCn1c(-c2ccccc2[N+](=O)[O-])n[nH]c1=S,3.4,-19,x,8,0.4,-4,-3.6,-2.0
CCn1c(SCc2cccc(C(=O)O)c2)nnc1-c1ccccc1,2.1,-17,1%,0,0.1,-1,x,-3.8
COC(=O)c1sccc1NC(=O)Nc1cc(OC)ccc1OC,-2.1,-2,x,-31,-0.2,3,3.9,-3.8

# Rewritten with two lines to a compound: 3 of the compounds above.
# Below each SMILES: LANA-H2A inh | T cruzi repl | Vif TR-FRET | Calb FLC | A1 inh | Beta cell apopt | AF4-AF9 inh | RanGTP-Impb inh
- COc1ccccc1-c1n[nH]c(=S)n1Cc1ccco1
    -2.3 | -4 | 10% | 2 | 0.2 | 2 | x | 4.3
- CCOc1cccc(C2/C(=C(/O)c3ccc4c(c3)CC(C)O4)C(=O)C(=O)N2Cc2ccncc2)c1 (stereo not given)
    -2.0 | -5 | -5% | x | 0.2 | 0 | 0.6 | 3.8
- CCc1ccc(S(=O)(=O)Nc2cccc(-c3ccc4nnc(C)n4n3)c2)s1
    -7.8 | 12 | 2% | -10 | -0.2 | 11 | -2.4 | 0.4

# The list goes on:
compound,LANA-H2A inh,T cruzi repl,Vif TR-FRET,Calb FLC,A1 inh,Beta cell apopt,AF4-AF9 inh,RanGTP-Impb inh
N#CCCN(C(=O)Nc1ccc(Cl)c(Cl)c1)c1ccccc1,-7.2,-2,-1%,-16,1.0,2,x,0.2
O=C(NCc1ccc2c(c1)OCO2)Nc1ccc(F)cc1,7.7,-4,x,-7,-0.6,-4,-2.8,1.5
O=C(Nc1cccc(S(=O)(=O)N2CCCCC2)c1)C1CC1,-163,x,-9%,x,0.2,-3,4.1,x
Cc1cc(C)n(-c2ccc(C(=O)Nc3cccnc3)cc2)n1,-2.9,1,u,-4,-1.3,-4,-2.5,-2.8
Cc1ccc2[nH]c(C(=O)O)c(NC(=O)[C@@H]3C[C@@H]3c3ccccc3)c2c1,-7.5,-2,5%,0,0.0,-4,0.9,-1.3
Cc1ccc(S(=O)(=O)N2CCN(C(=O)c3cccs3)CC2)cc1,-0.3,-24,4%,2,0.5,-1,0.1,0.5
CCOc1ccc(NC(=O)CN2CCN(CC(=O)Nc3ccc(F)c(F)c3)CC2)cc1,-0.6,u,7%,10,-0.6,5,x,0.2
COCCNC(=O)CN(C(=O)CCC(=O)Nc1ccccn1)c1ccc(C)c(C)c1,5.6,-5,x,-4,0.5,2,-7.9,0.9
COc1ccc(-n2c(SC(CN3CCCCC3)CN3CCCC3=O)nc3ccccc3c2=O)cc1 (stereo not given),0.0,43,-1%,0,-0.7,6,x,-0.2
Cc1cc(C(=O)NNC(=O)/C=C/c2ccc(F)cc2)c(C)o1,-1.8,1,x,7,0.5,-6,-0.6,2.2
Cc1n[nH]c(C)c1S(=O)(=O)N1CCCC(C(=O)NCc2ccccc2Cl)C1 (stereo not given),1.5,-14,7%,23,0.6,-3,-8.1,-1.0
CCOc1ccc(C(=O)Nc2ccc(NC(=S)NC(=O)CC)cc2)cc1Cl,0.1,-14,x,u,-0.1,5,-32,-0.1
Nc1nonc1-c1nc2ccccc2n1CC(=O)NC1CCCC1,2.4,5,3%,-1,3.2,-15,x,-0.3
COc1ccc(NC2CCCN(C(=O)c3cc(C)nc4cc(F)ccc34)C2)cc1 (stereo not given),4.1,18,x,12,-1.4,-1,3.8,2.4
CCOC(=O)c1sc(NC(=S)NC(=O)c2ccccc2)c(C(=O)OCC)c1C,0.6,-9,-8%,3,0.6,19,x,-1.5
CCCCN(C(=O)c1cc(S(=O)(=O)N2CCOCC2)ccc1Cl)c1c(N)n(CC(C)C)c(=O)[nH]c1=O,-2.2,3,4%,-9,0.0,-1,6.2,-6.1
COc1cc(NS(=O)(=O)c2ccc(N/C=C(\C#N)c3nc4ccccc4o3)cc2)nc(OC)n1,3.1,-9,3%,27,2.2,1,x,-0.5
COc1ccc(/C=N/NC(=S)Nc2ccccc2[N+](=O)[O-])cc1O,x,0,x,9,0.1,-2,8.5,-6.5
Cc1cc(C(=O)CSc2nnnn2C)c(C)n1CCc1ccc(Cl)cc1,0.0,-10,29µM*,x,-0.8,-7,x,-1.0
Oc1[nH]c2ccccc2c1N=Nc1nncc2ccccc12,-0.3,8,7%,6,-4.8,3,12,-2.9
CN(C(=O)c1ccccc1)c1nc2ccccc2s1,-3.0,-15,11%,-17,-5.0,2,x,2.9
CN1CCN(C(=O)/C=C/c2ccc(Cl)cc2)CC1,3.6,7,u,11,-0.1,x,-0.4,4.1
C=CCC(NCc1ccccc1)c1ccc(OC)cc1 (stereo not given),-3.6,8,1%,-5,-1.2,-1,-2.5,0.8

# Screens deposited in PubChem by several laboratories.
